gsp ag: qHTS for Agonist of gsp, the Etiologic Mutation Responsible for Fibrous Dysplasia/McCune-Albright Syndrome: qHTS. gsp mutant cells, cAMP HTRF, 30 min; control for the full effect not named in the record. Potency, µM (doses to about 76.9 µM), for inactives: at the highest dose activation (cAMP increase), usual class: activators. 0.13% of 340,000 active. AID 624287, 2012; active = well fitted activation curve with a large enough effect; inconclusive = small, poorly fitted or top-dose-only effect, or another doubt; inactive = no such curve, though single readings can be large or run the other way; cell line not stated here;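 also: phosphodiesterase inhibitor Ro 20-1724 added with compounds to block cAMP breakdown; potency is read from the fitted curve at half-maximal effect; nearly all actives have a fitted effect of over 60% in size; about a fifth of the inactives were tested at one dose only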
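Cells stably selected in G418 were plated at 2000/well, grown 16-24 hr, then given compounds in DMSO with the PDE inhibitor […] (300 uM solution added) for 30 min at 37C; cAMP was read by HTRF.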
ClpP mod: qHTS Assay for Activators of ClpP; 1.9% of 340,000 active; ATP-dependent Clp protease proteolytic subunit (Bacillus subtilis (strain 168)), P80244; purified B. subtilis ClpP, FRET peptide cleavage, 20 min; Potency, µM (titrated, usually from 57.5 µM), for the others: top-dose activity change, negative = active; active = well fitted falling curve with a large enough effect; inconclusive = small, poorly fitted or top-dose-only effect; inactive = no such curve, though single readings can be large or run the other way; also: potency is read from the fitted curve at half-maximal effect; the source files actives as falling curves though it sought activators and does not explain the sign; nearly all actives have a fitted effect of over 65% in size; many hits overshoot -100%
Target sequence (P80244 whole entry, looked up): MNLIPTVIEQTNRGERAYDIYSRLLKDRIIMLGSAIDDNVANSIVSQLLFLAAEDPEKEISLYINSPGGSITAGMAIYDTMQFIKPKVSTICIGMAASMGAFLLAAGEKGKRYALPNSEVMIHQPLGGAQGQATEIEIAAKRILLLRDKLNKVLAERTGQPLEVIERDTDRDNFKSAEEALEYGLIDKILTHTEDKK
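FRET quenching reversal measured ClpP activation: 10 microg/mL B. subtilis ClpP at pH 8 with the FRET-FV decapeptide, read at 430 nm after 320 nm excitation. The 20-min minus 0-min signal was scaled between DMSO/no-enzyme wells and ADEP (5.8 microM final).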
Sfp inh: qHTS Assay for Inhibitors of Bacillus subtilis Sfp phosphopantetheinyl transferase (PPTase); 4'-phosphopantetheinyl transferase ffp (Bacillus subtilis), Q9F4F7; 3.5% of 310,000 active; Biochemical Sfp PPTase activity, qHTS; AID 1490, 2009; Potency, µM, inactives show max response, negative = inhibition, hits mostly inhibitors; active = well fitted inhibition curve with a large enough effect; inconclusive = small, poorly fitted or top-dose-only effect, or another doubt; inactive = no such curve, though single readings can be large or run the other way;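 also: the enzyme is Sfp with the accession as filed and its product quenches rhodamine fluorescence; potency is read from the fitted curve at half-maximal effect; 0% = enzyme reaction without inhibitor and -100% = no enzyme wells; top concentration of the series not given in the record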
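Sfp 15 nM + cpd, 15 min RT; start w/ rhodamine-CoA 5 uM, BHQ-2-YbbR 12.5 uM (final); 50 mM Hepes pH 7.6, 10 mM MgCl2, 0.01% NP-40, 0.01% BSA; read 525/598 nm at 0 and 30 min.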
TRPV1 PAM: HTS Assay for Compounds that Act as Potentiators of the Vanilloid Receptor 1 | Transient receptor potential cation channel subfamily V member 1 (Homo sapiens), Q8NER1 | TRPV1-expressing cells, Fluo-8 calcium influx, capsaicin EC20 potentiation; host cell line not named in the record; control for the full effect not named in the record | potentiation, % at 8.33 µM | 0.02% of 320,000 active; active means potentiation above 80%; inconclusive means 30% to 80%; inactive means below 30%; also: 0% is about no effect
Target sequence (Q8NER1 whole entry, looked up): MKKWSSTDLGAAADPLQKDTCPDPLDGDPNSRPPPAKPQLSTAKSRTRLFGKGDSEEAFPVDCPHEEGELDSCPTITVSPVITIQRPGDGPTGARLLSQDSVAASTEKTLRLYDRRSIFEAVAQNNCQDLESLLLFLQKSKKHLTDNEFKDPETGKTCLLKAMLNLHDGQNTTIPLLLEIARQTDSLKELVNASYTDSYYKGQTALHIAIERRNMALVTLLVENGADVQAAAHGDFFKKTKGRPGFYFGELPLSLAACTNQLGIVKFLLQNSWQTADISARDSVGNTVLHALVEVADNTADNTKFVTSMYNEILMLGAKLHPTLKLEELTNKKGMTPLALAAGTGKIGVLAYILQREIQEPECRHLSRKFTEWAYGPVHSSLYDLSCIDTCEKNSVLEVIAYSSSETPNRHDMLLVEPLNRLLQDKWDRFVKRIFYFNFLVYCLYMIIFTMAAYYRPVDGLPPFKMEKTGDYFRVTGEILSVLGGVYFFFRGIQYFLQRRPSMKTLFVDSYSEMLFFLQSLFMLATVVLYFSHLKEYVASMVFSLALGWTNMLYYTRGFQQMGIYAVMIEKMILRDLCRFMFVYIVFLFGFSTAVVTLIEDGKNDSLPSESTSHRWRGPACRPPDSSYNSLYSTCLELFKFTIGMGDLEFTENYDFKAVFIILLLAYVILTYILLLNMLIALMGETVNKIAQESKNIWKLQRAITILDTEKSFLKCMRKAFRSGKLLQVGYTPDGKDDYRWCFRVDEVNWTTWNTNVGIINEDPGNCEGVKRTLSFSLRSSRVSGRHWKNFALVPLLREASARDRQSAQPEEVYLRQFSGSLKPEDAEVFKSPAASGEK
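Fluo-8 calcium influx in TRPV1-expressing cells, kinetic read (ex 480/em 520 nm). Compound added and read 3 min for agonist activity, followed by capsaicin at EC20 final and 2 min further read for enhancement.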
D2 potentiator: Beta-Arrestin HTS for Positive Allosteric Modulators of the Human D2 Dopamine Receptor: Potentiators; 0.23% of 360,000 active; AID 624464, 2012; potentiation, % (no concentration beside the values); DiscoveRx D2 beta-arrestin cells, luminescence, 90 min; 100% = 57 uM dopamine signal; D(2) dopamine receptor (Homo sapiens), P14416; active = potentiation of 50% or more; inconclusive = 30% to 50%; inactive = 30% or less;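 also: compound concentration not given in the record; tested on top of an EC20 dose of dopamine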
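PathHunter D2 cells, attached overnight at 37 deg C, received compound in DMSO plus dopamine at EC20 (50 nM final) for 90 min at 37 deg C. Beta-arrestin recruitment was read as luminescence after 1 h with detection reagent at ambient temperature.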
Menin MLL FP FL: qHTS Assay for Inhibitors Targeting the Menin-MLL Interaction in MLL Related Leukemias: Competition With Fluorescein Labeled MLL-derived Peptide | Fluorescence polarization, fluorescein-MLL peptide displacement from menin | FP activity change, % at 61.4 µM | 290,000 tested, under 10 active | AID 1766, 2009; inconclusive = falling polarisation curve, or a change in total fluorescence; inactive = total fluorescence flat and polarisation flat or rising; no compound was filed as active; the % refers to the polarisation; negative = inhibition;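 also: % of control where 0% means no effect; inhibitors lower the polarisation; unlabelled MLL peptide was the positive control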
gsp antag: qHTS for Antagonists of gsp, the Etiologic Mutation Responsible for Fibrous Dysplasia/McCune-Albright Syndrome: qHTS; Potency, µM (highest dose often 76.9 µM), inactives show at the top dose activity change, negative = inhibition, usual class: inhibitors; gsp-mutant cells, cAMP HTRF, 30 min; control for the full effect not named in the record; 0.4% of 340,000 active; active = falling curve of any shape with a large fitted effect; inconclusive = falling curve, mostly with a smaller effect; inactive = flat or rising curve; cell line not stated here;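 also: intracellular cAMP measured with PDE inhibitor Ro 20-1724 present during compound exposure; potency is read from the fitted curve at half-maximal effect; % is scaled to controls: 0 for no effect and ±100 for the full control effect; nearly all actives have a fitted effect of over 65% in size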
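HTRF cAMP measurement after 30 min RT detection following 30 min, 37C compound treatment alongside […] (added as 300 uM solution) in G418-selected cells seeded at 2000/well and grown 16–24 h.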
Numbers without * were called inactive; ? = inconclusive; · = no result given; & = joins results of further samples; [ ] = remark or other dose.

SMILES | gsp ag | ClpP mod | Sfp inh | TRPV1 PAM | D2 potentiator | Menin MLL FP FL | gsp antag
Nc1ccccc1SSc1ccccc1N | -13% | -2.1% | 3.5µM* | -17 | -49 | ? | -2%
CCCCn1c(C(C)NC(=O)CC)nc2ccccc21 (stereo unspecified) | 21% | 0.2% | 10% | -1 | -1 | -2.3 | 7%
COc1ccccc1NC(=O)C1CCCN(C(=O)Nc2ccc(F)cc2)C1 (stereo unspecified) | -4%[15.4 µM] | 0.7% | 15% | -18 | -5 | 1.6 | 13%
Cc1oc2cc3c(C(=O)N4CCCCC4)c(C)oc3cc2c1C(=O)N1CCCCC1 | -3% | 0.4% | ? | -3 | 8 | 5.2 | -7%
CS(=O)(=O)c1ccc(-c2nnc(NC(=O)c3cccc(N4C(=O)CCC4=O)c3)o2)cc1 | 0%[15.4 µM] | · | · | -32 | 1 | · | 8%
O=C(Nc1ccccc1)NC1CCCCNC1=O (stereo unspecified) | -3%[15.4 µM] | 1.0% | 8% | 4 | -6 | 1.5 | -6%
O=C(NCCCNC(=O)c1cc(Cl)ccc1Cl)c1ccccn1 | -5%[15.4 µM] | -2.4% | -8% | 4 | -8 | -6.8 | 2%
Cc1ccccc1NC(=O)C(C)OC(=O)CCC(=O)c1ccccc1 (stereo unspecified) | -79%[inhibitor] | -0.5% | · | · | -9 | · | ·
O=[N+]([O-])c1ccc(Sc2nnnn2-c2ccccc2)nc1 | ? | · | 14% | 3 | 12 | -6.6 | -2%
COc1ccc(N(C(=O)c2snc(C(N)=O)c2N)C(C(=O)NC2CCCC2)c2cc(OC)ccc2OC)c(OC)c1 (stereo unspecified) | 24% | · | 17% | -6 | -4 | -4.1 | -5%
CCN(CC)C(=O)CN1CCN(c2ccccc2F)CC1 | 16% | 0.4% | -20% | -9 | -18 | 1.3 | 3%
Cc1ccc(C)c(Nc2c([N+](=O)[O-])c(=O)oc3ccccc23)c1 | ? | · | 1% | 1 | -6 | -1.1 | -11%
CC(=O)c1ccc(NC(=O)c2ccc3c(c2)C(=O)N(c2ccccn2)C3=O)cc1 | 1% | · | 8% | -12 | -1 | 3.9 | -9%
O=C(CCc1nnc(-c2ccsc2)o1)N1CCc2c(Cl)cccc2C1 | -10% | -0.6% | 9% | 26 | -7 | -2.1 | -8%
O=C1C=CC(=O)N1N(c1ccccc1)c1ccccc1 | 4% | -1.7% | 32µM* | 4 | -20 | 1.1 | 18%
COC(=O)c1cccc(NC(=O)Cc2ccsc2)c1 | -1% | 0.3% | 13% | -8 | -9 | -21 | 14%
O=C(OCCN1CCOCC1)c1cccc(F)c1 | 2%[15.4 µM] | -0.4% | 18% | -6 | -11 | -10 | 7%
CCc1ccc2oc(=O)cc(CN3CCN(CCO)CC3)c2c1 | -24% | -6.9% | 7% | -2 | -14 | 2.8 | 1%
Cn1c(=O)c2c(nc(N3CCCCC3)n2C)n(C)c1=O | ? | 0.3% | 13% | 7 | 4 | 4.7 | -7%
CS(=O)(=O)c1ccc(N2CCN(C3CC(=O)NC3=O)CC2)cc1 (stereo unspecified) | 9% | -2.4% | 7% | 8 | 1 | 3.8 | -3%[15.4 µM]
CN(C)CCNc1c2c(c(C#N)c3nc4ccccc4n13)CCCC2 | 2% | -10.0% | 12% | -6 | 2 | -2.5 | -12%
Cc1ccc(-c2csc(NC(=O)c3ccccc3Cl)c2C(=O)O)cc1 | 27%[15.4 µM] | · | 3% | ? | 11 | 1.1 | -16%
CSC(SC)=C(C#N)C(=O)c1ccccc1 | -10%[15.4 µM] | · | 7.9µM* | -4 | -3 | -2.0 | -14%
Cc1ccc(CN(C)Cc2cc(=O)oc3cc(C)c(Cl)cc23)cc1 | ? | 0.0% | -21% | -8 | 3 | -1.5 | -23%
COC(=O)c1sccc1NC(=O)Nc1ccc(C)cc1C | -1% | -4.6% | 6% | 7 | 5 | -4.6 | -14%

Fetched by compound from the list above:
SMILES | gsp ag | ClpP mod | Sfp inh | TRPV1 PAM | D2 potentiator | Menin MLL FP FL | gsp antag
Cc1oc2cc3c(C(=O)N4CCCCC4)c(C)oc3cc2c1C(=O)N1CCCCC1 | -3% | 0.4% | ? | -3 | 8 | 5.2 | -7%
Nc1ccccc1SSc1ccccc1N | -13% | -2.1% | 3.5µM* | -17 | -49 | ? | -2%

The list goes on.
SMILES | gsp ag | ClpP mod | Sfp inh | TRPV1 PAM | D2 potentiator | Menin MLL FP FL | gsp antag
CN(C1CCCCC1)S(=O)(=O)c1ccc(SCC(=O)C(C)(C)C)nc1 | -3% | -0.6% | · | · | 6 | · | -8%
O=C(CNC(=O)C12CC3CC(CC(C3)C1)C2)N/N=C\c1ccccn1 | -36%[15.4 µM] | -5.1% | 14% | 0 | 1 | 2.3 | -2%
O=C(CNS(=O)(=O)c1ccccc1)NCC(=O)N1CCCCC1 | -7%[15.4 µM] | -0.2% | 2% | 10 | 10 | -6.5 | 12%
O=C(NCc1cccnc1)c1ccc(NC(=O)c2cccc([N+](=O)[O-])c2)cc1 | 2%[15.4 µM] | · | 12% | -2 | -9 | 0.6 | 0%
CN1CCN(S(=O)(=O)c2ccc(-c3ccc(Cl)cc3)cc2)CC1 | -35%[inhibitor] | -0.7% | 15% | 3 | -3 | -0.9 | 7%
COc1ccc(S(=O)(=O)NCc2nc3nc(C)cc(C)n3n2)cc1OC | -18% | 1.5%&1.5% | 16% | 12 | -4 | 1.9 | 4%
C=CCN(CC=C)C(=S)NC(=O)c1ccc(OC)c(Br)c1 | -26% | -1.4% | 13% | · | -32 | 4.1 | -6%
Cc1ccn2c(=S)[nH]nc2c1 | -10% | -7.1% | · | · | -37 | · | ·
CC1=C(C(=O)OCc2ccccc2)C(c2ccc(N3CCOCC3)cc2)NC(=O)N1 (stereo unspecified) | 1% | 0.5% | -6% | -1 | ? | 0.3 | -6%
CCN(CCCNC(=O)C1CCN(C(=O)c2cc3sccc3n2C)CC1)Cc1ccccc1 | ? | -4.7% | -1% | -5 | -16 | · | 14%
CC(=O)c1c(C)nc(Nc2nc(C)c3cc(C)ccc3n2)nc1C | ? | 3.6% | 7% | -2 | -17 | -1.2 | 2%
CCC(CO)Oc1cc(NC(=O)c2cccc(OC)c2)c2ncn(C(C)C)c2c1 (stereo unspecified) | · | -0.2% | · | · | 8 | · | -11%
O=C(COc1ccc(NS(=O)(=O)c2ccc(F)cc2)cc1)N1CCOCC1 | ? | 3.1% | 0% | 18 | -2 | 0.8 | 5%
CC(C)c1ccc(-c2nc3c([nH]2)c(=O)n(C)c(=O)n3C)cc1 | -14% | ? | 7% | -2 | -1 | 3.0 | 2%
Cc1ccc(S(=O)(=O)N2CCN(S(=O)(=O)c3ccc(C)cc3)C2)cc1 | -5% | 0.2% | -2% | -9 | -1 | -1.5 | 0%
O=C(NCc1ccccc1)Nc1cccn(Cc2ccccc2Cl)c1=O | 5% | 4.0% | 20% | 0 | -4 | 4.8 | -2%
Cc1cccc(CSc2nc3ccncc3n2CC(=O)Nc2cc(C)cc(C)c2)c1 | 29% | -1.3% | 6% | -4 | -8 | 2.1 | -18%
CC12CCC(C(=O)N(c3ccc(Cl)cc3)C1=O)C2(C)C (stereo unspecified) | 19% | -0.9% | 17% | -6 | -16 | 0.4 | 8%
COc1ccc(CCN(C)C2CCCN(C(=O)c3ccnn3C)C2)cc1OC (stereo unspecified) | 27% | -1.9% | 6% | -5 | -30 | 3.3 | 7%
NS(=O)(=O)c1ccc(CCNc2nc(C(F)(F)F)nc3ccccc23)cc1 | 20%[15.4 µM] | · | 16% | ? | -3 | 1.3 | -15%
COc1ccc(-c2nc(-c3cccc(C(F)(F)F)c3)no2)cc1OC | -49%[inhibitor] | ? | 0% | -15 | -5 | -1.6 | 10%
Cc1cc(C)c(OCC(=O)N2CC=C(c3ccccc3)CC2)c(C)c1 | 14% | -5.8% | -2% | -23 | -43 | · | -12%
CCN(c1ccc2c(c1)OCO2)S(=O)(=O)c1cc(Br)cc2c1N(C(=O)C1CC1)CC2 | 26% | -3.2% | 3% | -8 | 5 | -1.0 | ?
O=C(NNC(=O)c1cccnc1)NC12CC3CC(CC(C3)C1)C2 | -45%[inhibitor] | -14% | -2% | 0 | -14 | -0.1 | 6%
CN(C)c1ccc(C(=O)C(O)c2ccc(C(C)(C)C)cc2)cc1 (stereo unspecified) | ? | -1.0% | 12% | -7 | 1 | 1.6 | -1%
New compounds follow
SMILES | gsp ag | ClpP mod | Sfp inh | TRPV1 PAM | D2 potentiator | Menin MLL FP FL | gsp antag
CCC(C)C(NC(=O)C1CCC(=O)N1C(=O)OCc1ccccc1)C(=O)NC(C(=O)N1CCCC1C(N)=O)C(C)CC (stereo unspecified) | -1%[15.4 µM] | · | 19% | 17 | -5 | 0.3 | -5%
Cc1ccc(N(Cc2ccccc2)C(=O)c2cc(S(=O)(=O)N3CCOCC3)ccc2N2CCCC2)cc1 | 12% | -4.4% | · | -3 | -31 | · | ?
Cc1ccc(-n2c(C)nn(CC3CC3)c2=O)cc1 | 0%[15.4 µM] | · | 12% | -6 | 0 | -1.1 | -20%
CCOC(=O)C1CCN(c2c(N3CCN(Cc4ccccc4)CC3)c(=O)c2=O)CC1 | 20% | -3.5% | 15% | -26 | -6 | -0.2 | -9%
O=C(CSc1n[nH]c(=O)n1Cc1ccco1)N1CCOCC1 | -13%[15.4 µM] | · | -12% | 1 | -5 | 3.7 | 1%
COc1cccc(NC(=O)CN(C)S(=O)(=O)c2ccc(C)cc2)c1 | -35%[inhibitor] | -0.5% | 24% | -4 | -16 | 0.5 | 5%
Cc1cc(C)n(CC(=O)NNC(=O)CCCOc2ccc(Cl)c(C)c2)n1 | -2% | -2.2% | 0% | 7 | -3 | 0.9 | -4%

Screens as filed in PubChem BioAssay.
